CSC inhib = cancer stem cell inhibition; cancer stem cell-like cells viability, luminescence; inhibition, % at 7.5 µM; 300,000 tested, 1.1% active;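 active = mean at 75% or more and at least half the replicates too; inconclusive = mean and replicates disagree; tested in HMLE shEcad cells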;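 also: 0% = median of negative and 100% = median of positive control wells; the first replicate is given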
Rce1 inhib = inhibitors of yeast Ras-converting enzyme; AID 2563; yeast membranes, quenched prenylated peptide cleavage fluorescence; calls only; Q03530; 290,000 tested, 0.27% active;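 active = fall in fluorescence gain of 50% or more versus controls, with final raw signal at or below 3038400; inconclusive = same 50% fall but final raw signal above 3038400; inactive = fall in fluorescence gain under 50%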;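 also: plate controls were neutral control wells for no effect and wells lacking membranes for full effect; tested at 10 µM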
MT1-MMP act inh = blocks activation of human MT1-MMP | P50281 | HT1080 RFP-PRO-GFP cells, GFP/RFP ratio fluorescence, overnight; percent of plate control window, DMSO zero | GFP/RFP ratio change, % at 20 µM | 360,000 tested, 0.061% active | AID 651647;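 active = GFP/RFP ratio change of at least 30% with cell ATP level not reduced by more than half and red fluorescence within 50% of control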; also: strong numbers were not always called active
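system = RFP-PRO-GFP reporter HT1080 cells | dosing = 20 µM single dose, 1% DMSO | timing = overnight cell settling, then overnight compound exposure, 37 °C, 5% CO2 | read-out basis = GFP/RFP fluorescence ratio | controls = DMSO and RFP-L50D-GFP cell wells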
HIV Env fusion = HIV envelope-mediated fusion inhibition | HeLa-JRFL Env/CEM21 cell fusion, luciferase | inhibition, % at 12.3 µM | 360,000 tested, 1.1% active;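 active = mean replicate inhibition score of at least 50 and every replicate individually at or above 50; inconclusive = only one of the two criteria met; inactive = mean below 50 and not all replicates reaching 50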;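 also: 0% = plate neutral controls and 100% = maraviroc near 300 nM; one replicate is shown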
PABP polyA inh = blocks human PABP binding to poly(A) RNA; fluorescence polarization; 290,000 tested, 1% active; inhibition, % at 35 µM; AID 2014; P11940;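 active = 50% or more with normal probe brightness, or confirmed in later tests; inconclusive = above 50% with abnormal brightness, or retests that disagree; inactive = below 50% or failed in later tests; about a fifth of its hits are not listed in these tables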;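 also: calls also rest on retests at 20 µM and on dose response follow-up; controls were probe without protein and protein plus probe with vehicle; some compounds called inactive have numbers as strong as hits; many hits fall short of the cut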
Target sequence (P11940 whole entry, looked up): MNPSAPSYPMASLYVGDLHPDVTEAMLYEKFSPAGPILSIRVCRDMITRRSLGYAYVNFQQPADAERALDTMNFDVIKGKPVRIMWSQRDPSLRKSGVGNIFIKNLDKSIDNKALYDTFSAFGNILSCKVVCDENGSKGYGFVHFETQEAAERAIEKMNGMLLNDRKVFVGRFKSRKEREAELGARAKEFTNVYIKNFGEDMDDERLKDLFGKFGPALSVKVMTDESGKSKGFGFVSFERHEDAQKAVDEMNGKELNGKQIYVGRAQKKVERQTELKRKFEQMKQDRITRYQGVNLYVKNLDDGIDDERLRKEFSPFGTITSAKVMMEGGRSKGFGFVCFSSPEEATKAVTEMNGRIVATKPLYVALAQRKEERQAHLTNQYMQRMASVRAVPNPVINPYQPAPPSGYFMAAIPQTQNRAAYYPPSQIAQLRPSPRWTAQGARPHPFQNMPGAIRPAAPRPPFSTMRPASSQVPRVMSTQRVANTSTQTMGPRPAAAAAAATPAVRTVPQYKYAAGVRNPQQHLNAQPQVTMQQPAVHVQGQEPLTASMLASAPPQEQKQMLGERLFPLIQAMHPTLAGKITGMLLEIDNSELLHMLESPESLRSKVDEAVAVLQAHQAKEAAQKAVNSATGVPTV
eIF4H FP inh = inhibitors of RNA binding by human eIF4H; eIF4H fluorescence polarization binding assay; inhibition, % at 35 µM; Q15056; 290,000 tested, 0.94% active;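 active = 50% or more with normal probe brightness, or confirmed in later tests; inconclusive = above 50% with abnormal brightness, or retests that disagree; inactive = below 50% or failed in later tests; about a fifth of its hits are not listed in these tables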;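 also: calls also rest on retests at 20 µM and on dose response follow-up; 0% = protein and probe with vehicle and 100% = probe without protein; strong numbers were not always called active; many hits fall short of the cut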
UUG fidelity = modulators of start codon recognition fidelity in yeast; S. cerevisiae UUG-firefly luciferase reporter, luminescence/redox ratio; activity score, % at 18.7 µM; 350,000 tested, 0.13% active;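 active = replicate mean at a twofold rise or more, about +100% in these data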;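 also: firefly luciferase made from a UUG start codon reports start codon fidelity; reporter light over untreated wells divided by growth signal over untreated wells; some hits fall short of that in this replicate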
eIF4H FP inh retest = second read-out of eIF4H FP inh, no call of its own (marks repeat the call); inhibition, %; compound at 20 µM; confirmation average;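 mean of two retest wells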
PABP polyA inh retest = second read-out of PABP polyA inh, no call of its own (marks repeat the call); inhibition, %; compound at 20 µM; confirmation repeats;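 mean of two retest wells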
MT1-MMP act inh RFP = also measured in MT1-MMP act inh; calls as there; RFP signal change, %; measured here: RFP expression control read;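 0 = vehicle wells; hits needed this value within 50% of zero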
* marks the source's active call; other numbers are inactive results; i = inactive; ? = inconclusive; . = no result given.

SMILES	CSC inhib	Rce1 inhib	MT1-MMP act inh	MT1-MMP act inh RFP	HIV Env fusion	PABP polyA inh	eIF4H FP inh	UUG fidelity	others
CCc1ccc(S(=O)(=O)NCCc2csc(-c3ccccc3)n2)s1	14	i	-3	-13	?	-14	-7	-15
CCOc1cc([N+](=O)[O-])cc(/C=C2/NC(=O)N(Cc3ccccc3F)C2=O)c1O	14	i	20	2	17	8	10	.
CC(=O)N1c2ccc(S(=O)(=O)N3CCC(C(=O)NC4CCCCC4C)CC3)cc2CC1C (configuration not stated)	-7	i	-1	-2	-9	-8	19	-6
CC1CCC(C(C)C)C(=O)/C1=C/c1ccc(N)cc1 (configuration not stated)	43	i	-6	-7	-46	-10	-2	-32
COc1ccccc1C(=O)N1CCN(c2ccc(N3CCOCC3)nn2)CC1	-3	i	-3	5	2	.	.	-11
CN(Cc1ccccc1)C(=O)CSc1nnc(-c2ccco2)n1-c1ccccc1	13	i	3	-3	.	5	-7	7
Cc1cccc2sc(NNC(=O)C3=COCCO3)nc12	5	i	5	12	10	-14	-2	.
O=C(CSc1ccc(-c2ccccn2)nn1)N1CCc2ccccc21	36	i	5	3	9	-8	-3	.
CC(=O)Nc1ncc(Cc2cccc(Cl)c2)s1	.	i	1	4	-9	-1	-7	.
COc1ccccc1C(=O)Nc1ccc2oc(-c3ccc(F)cc3)nc2c1	-3	i	1	1	-31	5	4	-4
O=C(/C=C/c1ccccc1)Nc1nnc(-c2ccco2)o1	-2	i	6	-1	7	4	13	-14
COc1ccccc1OCc1nnc(SCCN2CCOCC2)o1	-6	i	4	2	-73	-1	-5	-13
COc1ccc(N(CC(=O)N/N=C(\C)c2ccc(OC)c(OC)c2)S(=O)(=O)c2ccccc2)cc1	2	i	-2	-2	-16	-3	-1	-4
CCOC(=O)c1cnn(CCOC(=O)c2ccc(OC)cc2)c1NC(=O)c1ccc(OC)cc1	2	i	6	0	3	-1	-5	2
O=C(CSc1nnc(COc2ccccc2Cl)o1)NC(=O)NC1CCCC1	-8	i	1	4	.	1	-12	-20
CC(=O)Nc1ccc(C(=O)OCC(=O)N2CC3(C)CC2CC(C)(C)C3)cc1 (configuration not stated)	-21	.	3	5	-5	.	.	-10
O=C(Nc1cc(S(=O)(=O)N2CCCCC2)ccc1N1CCOCC1)c1cc(=O)[nH]c2ccccc12	4	i	8	4	2	3	-13	-4
Cc1ccc(NC(=O)c2ccc3c(c2)C(=O)N(c2ccccc2C)C3=O)nc1	13	.	1	1	.	.	.	-15
CC(C)Oc1cccc(C(=O)Nc2ccc(N3CCN(S(C)(=O)=O)CC3)cc2)c1	-14	.	3	-4	-30	1	-6	9
COc1cccc(N2C(=O)CN(Cc3ccc(OC)c(OC)c3)C2=S)c1	10	i	2	-2	-32	-2	8	-12
COc1ccc(C(=O)NNC(=O)COc2ccc(Cl)cc2C)cc1S(=O)(=O)N1CCOCC1	-1	i	2	-2	-5	.	.	0
O=C(OC(C(=O)NCc1cccs1)c1ccc(F)cc1)c1ccco1 (configuration not stated)	-6	i	-3	4	-43	1	3	1
CN(CC(=O)Nc1cccc(S(=O)(=O)N(C)c2ccccc2)c1)Cc1cccs1	.	.	1	-4	22	.	.	-14
Cc1ccnc(SC2CC(=O)N(c3ccccc3)C2=O)n1 (configuration not stated)	.	.	-2	-1	11	.	.	-12
COC(=O)c1sc(NC(=O)COc2ccc(OC)cc2)nc1C	2	i	5	8	.	.	.	.

Remaining list, next part
SMILES	CSC inhib	Rce1 inhib	MT1-MMP act inh	MT1-MMP act inh RFP	HIV Env fusion	PABP polyA inh	eIF4H FP inh	UUG fidelity	others
CCOC(=O)CCCNC(=O)CN1CCC(c2nc3ccccc3s2)CC1	.	i	3	-1	19	15	10	-12
CC(C)[N+](C)(C)CC(O)CN(c1ccccc1)c1ccccc1 (configuration not stated)	-4	i	-3	-4	-2	66*	-4	-12
Nc1nonc1NC(=O)CSc1ncccc1C(=O)O	2	i	-1	-1	.	-4	0	-11
N#Cc1cc2sc3nc4ccccc4n3c2cc1C#N	.	i	.	.	.	2	6	.
CCOc1ccccc1CNC(=O)c1c([N+](=O)[O-])c(C)nn1C	8	i	4	3	-19	-1	-2	-7
N/C(=N\OC(=O)/C=C/c1ccccc1)c1ccc(Cl)cc1	0	i	1	2	-14	-3	1	-17
Cc1c(NC(=S)NC(=O)c2cccc(Br)c2)c(=O)n(-c2ccccc2)n1C	-27	i	3	0	-5	16	89	-6	eIF4H FP inh retest=5;PABP polyA inh retest=-4
Cn1c(=O)c2c(nc(CN3CCCCC3)n2CCCc2ccccc2)n(C)c1=O	-12	i	-1	3	-25	.	.	-7
COc1ccc(N2CCN(C(=S)Nc3ccc(C)cc3)CC2)cc1	-1	i	3	1	15	-13	-10	.
Cc1ccc2nc(N(CCCN(C)C)C(=O)c3ccc(S(=O)(=O)N4CCc5ccccc5C4)cc3)sc2c1	6	i	-17	-3	8	-18	-18	-7
O=S(=O)(Nc1cccc(-c2cn3ccsc3n2)c1)c1ccc(F)cc1	-8	i	0	-10	-27	8	10	-5
N#CCCN1CCN(CCC#N)C1=S	.	.	7	4	-16	.	.	31
Cc1cc(N2CCOCC2)nc2ccc(NC(=O)C3CCC(C)CC3)cc12 (configuration not stated)	25	i	10	4	-120	-7	-9	-3
CC/C(=C\c1oc2cc3ccccc3cc2[n+]1CC)Nc1ccccc1	22	i	3	2	16	-10	11	-3
COc1cccc(CN2CC(C(=O)N3CCN(C(C)C)CC3)CCC2=O)c1 (configuration not stated)	-5	i	1	6	.	14	-9	-17
COc1cc(C(C)=O)ccc1COc1ccc(C(=O)OC(C)C(=O)NC(N)=O)cc1OC (configuration not stated)	-8	i	-7	-4	-14	-14	-19	-13
Cc1ccc2c(n1)sc1c(-c3ccc(Br)cc3)c(C#N)c(N)nc12	15	.	4	-1	.	-23	-12	-4
CCCc1ccc2oc(C(=O)N3CCC(COC)C3)c(C)c2c1 (configuration not stated)	-7	i	0	-1	-52	4	9	-6
Cc1nnc(SCC(=O)Nc2ccc3c(c2)OCCO3)s1	0	i	-2	-1	.	-10	-1	.
O=C(Nc1ccccc1)Nc1ccc(Oc2cccnc2)nc1	-8	.	5	-9	-10	-1	5	-36
CCc1ccc(C(O)c2ncc(-c3ccccc3OC)[nH]2)cc1 (configuration not stated)	.	.	3	-10	18	.	.	-24
CCOC(=O)/C(=C/c1cn(C)c2ccccc12)NC(=O)c1ccccc1	4	i	9	-1	0	5	3	.
Cc1ccc2cc(CCNC(=O)c3ccco3)c(=O)[nH]c2c1	-5	i	-5	1	-84	-10	4	-14
Cc1ccc(OCc2cc(C(=O)N(C)Cc3nccn3C)no2)cc1C	5	i	8	0	-6	-2	-10	-10
COCCn1nnnc1C(c1cccs1)N1CCN(c2cc(C)ccc2C)CC1 (configuration not stated)	11	i	-9	-6	20	8	0	-2

Continued.
SMILES	CSC inhib	Rce1 inhib	MT1-MMP act inh	MT1-MMP act inh RFP	HIV Env fusion	PABP polyA inh	eIF4H FP inh	UUG fidelity	others
Cc1ccc(C)c(OCCCC(=O)Nc2nccs2)c1	-6	i	-5	-5	-57	-1	-10	-10
COc1ccccc1C/C(N)=N/OC(=O)c1ccc2c(c1)OCO2	-8	i	3	0	-15	6	-4	.
O=C(NCc1ccccc1)C1CCCN(S(=O)(=O)c2cccs2)C1 (configuration not stated)	-10	i	0	2	18	-6	-3	.
CC(C)CN(CC(C)C)S(=O)(=O)N1CCC(C(=O)NC2CCCCCCC2)CC1	15	i	0	-8	.	3	6	-2
O=S(=O)(c1ccc(Oc2ccc(-c3nnco3)cc2)nc1)N1CCC(Cc2ccccc2)CC1	-7	i	2	0	-10	-4	2	-12
CCOC(=O)N1CCN(C(=O)CS(=O)Cc2nc(-c3ccc(C)cc3)oc2C)CC1 (configuration not stated)	-3	i	0	6	-3	6	-1	21
COc1ccccc1N1CCN(CC(O)COCCOc2ccc(Br)cc2)CC1 (configuration not stated)	56	i	-3	-10	11	6	2	.
O=C(COC(=O)C1(c2ccccc2)CC1)NNC(=O)c1ccccc1	-16	i	7	5	16	.	.	.
CCCCCNCc1cccn1C	-2	i	1	6	.	12	1	7
COc1ccc(S(=O)(=O)N2CCCCC2)cc1NC(=O)c1cc(C)on1	.	i	2	4	6	-18	-2	-16
CCc1ccc(C2CC(=O)Nc3c2c(=O)nc2c(C)cccn32)cc1 (configuration not stated)	-3	i	-3	-1	14	1	0	-11
O=C(CN1CCCCCC1)Nc1ccc(Oc2ccccc2)cc1	.	i	-2	0	21	-7	-3	.
CCCNC(=O)Cn1nc(-c2ccccc2OC)ccc1=O	.	.	3	2	10	.	.	-16
COC(=O)c1sccc1NC(=O)c1c(C)noc1C	-7	i	2	-1	-115	4	3	.
Cc1c(C(=O)Nc2ccccn2)oc2ccc(Br)cc12	-2	i	-5	-4	-58	.	.	-13
O=C(CSc1nc2ccccc2s1)NC1CCCC1	-10	i	-1	5	-11	-4	-5	.
O=C(NCC12CC3CC(CC(C3)C1)C2)c1nc2ncccn2n1	5	i	10	0	-20	-7	6	-10
CCCCOc1ccc(C(C)NC(=O)CCS(=O)(=O)Cc2ccccc2F)cc1 (configuration not stated)	2	i	-2	-2	18	-4	-7	-5
CCc1c(C)sc(NC(=S)NC(C)C2CCCO2)c1C(=O)OC (configuration not stated)	1	i	-4	-9	4	-12	-2	-11
Cc1ccc(NC(=O)Nc2cccnc2)cc1NC(=O)Nc1cccnc1	30	i	1	-6	-10	8	4	-19
COCCNC(=O)Cn1c(=O)n(CCCCCC(=O)Nc2ccccc2)c(=O)c2sccc21	-13	i	1	5	-8	27	-14	.
COc1ccc(N=Cc2c(O)n(-c3cccc(C)n3)c(=O)c3ccccc23)cc1	-5	i	2	-4	-7	-7	-3	-16
Cc1ccc(Cn2c(=O)n(CCC(=O)NCc3ccc4c(c3)OCO4)c(=O)c3ccccc32)cc1	3	.	-2	3	-109	2	-7	-5
COc1ccc(OC)c(-n2c(N)c(C(=O)NCC3CCCO3)c3nc4ccccc4nc32)c1 (configuration not stated)	.	i	2	1	.	16	7	25
Fc1ccc(CSc2nnc(-c3cccnc3)o2)cc1	9	i	0	0	0	-12	-6	.
O=C(Cn1cnc2ccccc2c1=O)c1c[nH]c2ccccc12	-2	i	-7	-6	-58	-2	-11	-14
O=C(COC(=O)CNS(=O)(=O)c1ccc(F)c(F)c1F)NC1CCCC1	11	i	1	2	-6	.	.	.

Reprinted at random: 7 compounds from above.
SMILES	CSC inhib	Rce1 inhib	MT1-MMP act inh	MT1-MMP act inh RFP	HIV Env fusion	PABP polyA inh	eIF4H FP inh	UUG fidelity	others
CCOC(=O)N1CCN(C(=O)CS(=O)Cc2nc(-c3ccc(C)cc3)oc2C)CC1 (configuration not stated)	-3	i	0	6	-3	6	-1	21
CCCCCNCc1cccn1C	-2	i	1	6	.	12	1	7
CC(C)CN(CC(C)C)S(=O)(=O)N1CCC(C(=O)NC2CCCCCCC2)CC1	15	i	0	-8	.	3	6	-2
CCc1c(C)sc(NC(=S)NC(C)C2CCCO2)c1C(=O)OC (configuration not stated)	1	i	-4	-9	4	-12	-2	-11
COc1ccc(N=Cc2c(O)n(-c3cccc(C)n3)c(=O)c3ccccc23)cc1	-5	i	2	-4	-7	-7	-3	-16
O=C(NCC12CC3CC(CC(C3)C1)C2)c1nc2ncccn2n1	5	i	10	0	-20	-7	6	-10
COc1ccc(OC)c(-n2c(N)c(C(=O)NCC3CCCO3)c3nc4ccccc4nc32)c1 (configuration not stated)	.	i	2	1	.	16	7	25

From PubChem
